Lassa entry inh: blocks Lassa virus binding to or entry into cells; 1.2% of 300,000 active; AID 540256; Lassa virus pseudotype entry inhibition, cell reporter; control for the full effect not named in the record; Potency, µM (top dose mostly 37.9 µM), without a hit: at the top dose activity change, negative = inhibition, most hits filed as inhibitors; active means well fitted inhibition curve with a large enough effect; inconclusive means small, poorly fitted or top-dose-only effect, or effect the other way; inactive means flat fitted curve, though single readings scatter; tested in HEK293 cells; also: % is scaled to controls: 0 for no effect and ±100 for the full control effect; nearly all actives have a fitted effect of over 50% in size; luciferase read-out
SARS PLP yeast: inhibitors of SARS-CoV papain-like protease in yeast; S. cerevisiae expressing SARS-CoV PLpro, growth rescue; control for the full effect not named in the record; Potency, µM (titrated, usually from 32.9 µM), for the others: top-dose activity, positive = growth rescue; 0.19% of 330,000 active; AID 485353; also: 0% is about no effect; nearly all actives have a fitted effect of over 55% in size; growth read by luminescence after 48 h
MARV entry inh: inhibitors of Marburg virus binding or cell entry. 1.8% of 300,000 active. Marburg virus pseudotyped entry inhibition, cell reporter; control for the full effect not named in the record; about a third of the inactives were read at about 46 µM. Potency, µM (highest dose often 37.8 µM), without a hit: at the highest dose activity change, negative = inhibition, most hits filed as inhibitors. AID 540276; active = well fitted inhibition curve with a large enough effect; inconclusive = small, poorly fitted or top-dose-only effect, or effect the other way; inactive = flat fitted curve, though single readings scatter; tested in HEK293 cells; about a fifth of its hits are not listed in these tables; also: % is scaled to controls: 0 for no effect and ±100 for the full control effect; luciferase read-out
RE007 growth inh: less growth of the S. pombe RE007 Vpr strain | S. pombe RE007 Vpr strain, BacTiter-Glo ATP luminescence, 24 h; control for the full effect not named in the record | Potency, µM (highest dose often 92.2 µM), inactives show at the top dose activity change, negative = less growth | 0.21% of 360,000 active; active = well fitted falling curve with a large enough effect; inconclusive = small, poorly fitted or top-dose-only effect; inactive = no such curve, though single readings can be large or run the other way;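 also: % is scaled to controls: 0 for no effect and ±100 for the full control effect; nearly all actives have a fitted effect of over 50% in size; the assay follows cell death caused by Vpr and the record does not say whether a fall means rescue or toxicity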
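Fission yeast RE007 carrying one integrated HIV-1 vpr copy, seeded at OD 0.01 in PMG+AL medium with 23 nL pinned compound. Grown 24 h at 30 degrees; viability read by BacTiter-Glo luminescence after 5 min.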
Cruzain Triton: blocks cruzain activity in presence of Triton detergent. purified cruzain, Z-FR-AMC fluorescence, 0.01% Triton. 0.43% of 200,000 active. Potency, µM, for inactives: max response, negative = inhibition, hits mostly inhibitors. P25779; active = well fitted curve in the direction sought with a large enough effect; inconclusive = small, poorly fitted or top-dose-only effect, or another doubt; inactive = no such curve, though single readings can be large; an effect the other way counts as inactive or inconclusive;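 also: plate controls were neutral wells for no effect and buffer without enzyme for full effect; nearly all actives have a fitted effect of over 40% in size; top concentration of the series not given in the record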
Target sequence (P25779 123-467 limits assumed): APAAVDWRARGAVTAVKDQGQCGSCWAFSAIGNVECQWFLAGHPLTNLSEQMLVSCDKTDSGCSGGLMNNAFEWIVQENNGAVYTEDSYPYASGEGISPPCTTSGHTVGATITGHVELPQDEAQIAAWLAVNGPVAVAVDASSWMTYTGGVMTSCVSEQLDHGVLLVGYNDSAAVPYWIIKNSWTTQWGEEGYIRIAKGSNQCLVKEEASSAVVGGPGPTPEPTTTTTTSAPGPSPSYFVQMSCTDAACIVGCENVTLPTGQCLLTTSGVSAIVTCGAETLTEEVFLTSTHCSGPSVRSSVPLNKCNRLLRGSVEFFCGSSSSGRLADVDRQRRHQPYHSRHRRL
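Detergent-containing arm of a paired screen for aggregation-based inhibition: 0.01% Triton X-100 present. Cruzain at 1.5 nM cleaved 2 uM Z-FR-AMC at pH 5.5 with 5 mM DTT; AMC fluorescence gain over 60 s measured activity.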
2A StopGo: lowers the luciferase signal of an FMDV 2A StopGo reporter; human cells with a luciferase reporter of 2A StopGo recoding; control for the full effect not named in the record; Potency, µM (top dose mostly 57.9 µM), inactives show at the highest dose signal change, negative = less light; 1.2% of 410,000 active; active = well fitted falling curve with a large enough effect; inconclusive = small, poorly fitted or top-dose-only effect; inactive = no such curve, though single readings can be large or run the other way; tested in HEK293T cells; also: % is scaled to controls: 0 for no effect and ±100 for the full control effect; nearly all actives have a fitted effect of over 45% in size; luciferase light after 4 h
NS1 inh: influenza NS1 inhibition | S. cerevisiae slowed by influenza A NS1, growth recovery by OD600 | Potency, µM (top dose mostly 46.1 µM), inactives show at the highest dose activity, positive = more growth | 0.4% of 270,000 active | AID 2326; also: actives are rising curves; nearly all actives have a fitted effect of over 50% in size
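S. cerevisiae expressing influenza A NS1, grown in glucose, washed, then diluted 1:100 into pH 6.0 -URA galactose medium with 23 nl compound. Growth recovery read as OD600; NS1-free strain serves as control.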
Cruzain noTriton: blocks cruzain activity in detergent-free assay. P25779. purified cruzain, Z-FR-AMC fluorescence, no detergent. Potency, µM, inactives show max response, negative = inhibition, hits mostly inhibitors. 2.3% of 200,000 active. AID 1476; active = well fitted curve in the direction sought with a large enough effect; inconclusive = small, poorly fitted or top-dose-only effect, or another doubt; inactive = no such curve, though single readings can be large; an effect the other way counts as inactive or inconclusive;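 also: plate controls were enzyme without inhibitor for no effect and buffer without enzyme for full effect; nearly all actives have a fitted effect of over 40% in size; top concentration of the series not given in the record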
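Detergent-free condition (0.00005% Triton X-100) in acetate buffer pH 5.5 with DTT. 1.5 nM enzyme and compound were pre-mixed 15 min, then 2 uM Z-FR-AMC substrate added; reaction progress from fluorescence change between first and third reads (60 s).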
An asterisk follows results filed as active; ? = inconclusive; nt = not tested or not shown; & = joins results of further samples; [ ] = another dose, or the depositor's remark. Unless noted, calls follow the shape of the dose curve; as a rule, active means well fitted rising curve with a large enough effect; inconclusive means small, poorly fitted or top-dose-only effect; inactive means no such curve, though single readings can be large or run the other way. Potency is read from the fitted curve at half-maximal effect.

Compound | MARV entry inh | SARS PLP yeast | 2A StopGo | Cruzain noTriton | Lassa entry inh | RE007 growth inh | Cruzain Triton | NS1 inh
Cc1ccc(N2C(=O)CC(SCC(=O)Nc3ccc(S(N)(=O)=O)cc3)C2=O)cc1 (stereo not given) | 13%[46.1 µM] | -7% | 4% | nt | -14% | ? | nt | nt
Cc1cccc(NC(=O)NC2CC(=O)N(c3ccc4c(c3)OCCO4)C2)n1 (stereo not given) | 4%[46.1 µM] | 4% | -17% | nt | 19% | 1% | nt | nt
Cc1cc(S(=O)(=O)N2CCCC2)ccc1OCC(=O)NCc1ccccc1 | nt | 0% | -13% | nt | nt | -20% | nt | 6%
COC(CNC(=O)CNC(=S)N(Cc1ccccc1)Cc1cccnc1)OC | 3% | -4% | 18% | nt | nt | -13% | nt | nt
O=C1NC(=S)S/C1=C\c1ccc(SCc2ccco2)o1 | 9% | -97% | -24% | ? | -5% | 0% | 16µM* | -29%
O=S(=O)(c1ccc(S(=O)(=O)N2CCCC2)cc1)N1CCCCC1 | ? | -6% | 5% | nt | -6%[46.1 µM] | -13% | nt | 9%
O=C(NCCc1ccc(Cl)cc1)C(=O)NCC(c1ccco1)S(=O)(=O)c1ccccc1 (stereo not given) | nt | nt | -6% | -4% | 3%[46.1 µM] | nt | 0.2% | nt
CCOc1ccc(-n2ccnc2)nn1 | 2% | 1% | -4% | nt | nt | 0% | nt | 4%
Cc1ccc(SCC(=O)Nc2ccc(-c3nc4ccccc4[nH]3)cc2)cc1 | ? | 4% | 6% | ? | ? | -2% | -25% | 1%
CCOC(=O)c1cc(CC)sc1NC(=O)CSc1nc2ccccc2c(=O)n1Cc1ccco1 | 16% | -17% | -8% | ? | ? | -9% | -4.9% | 20%
CC(=O)Nc1ccc(C(=O)CSc2nc3ccc(C)cc3[nH]2)cc1 | -15% | 2% | 22% | -6% | 1% | 8% | -5.3% | 16%
O=C(/C=C/c1ccccc1)NC(NC(=S)Nc1cccc(Cl)c1)C(Cl)(Cl)Cl (stereo not given) | ? | -4% | -19% | ? | 9.2µM* | 10% | -0.6% | 4%
COc1cccc(CNC(=O)CSc2nc3c(oc4ccccc43)c(=O)n2CC2CCCO2)c1 (stereo not given) | -12% | 0% | -10% | nt | 7% | 2% | nt | nt
CCOC(=O)c1cnc2c(C)cc(C)cc2c1Nc1ccc(S(=O)(=O)Nc2ncccn2)cc1 | ? | 3% | 4% | ? | 5% | -13% | -8.8% | 3%
CC(C)CN1C(=S)SC(C)(C)C1n1oc(=O)n(-c2ccccc2)c1=O (stereo not given) | -16% | -48% | -24% | 5% | -5% | 19% | -7.3% | -47%

Compound | MARV entry inh | SARS PLP yeast | 2A StopGo | Cruzain noTriton | Lassa entry inh | RE007 growth inh | Cruzain Triton | NS1 inh
CNC(=S)NNC(=O)c1ccc(N(C)C)cc1 | -2%[46.1 µM] | 3% | 4% | nt | ? | -6% | nt | 1%
CN(CCNC(=O)C1CC(=O)N(c2ccc(F)c(Cl)c2)C1)Cc1ccccc1 (stereo not given) | -28% | -17% | nt | 10% | -1% | -16% | 1.8% | -6%
O=C(O)CC12CC3CC(C1)CC(n1ncc(NCc4ccccc4Cl)c(Cl)c1=O)(C3)C2 | nt | 0% | -3% | nt | nt | 0% | nt | ?
O=C(CN1C(=O)c2ccccc2S1(=O)=O)NC(Nc1ccccc1F)C(Cl)(Cl)Cl (stereo not given) | -8% | -3% | -5% | nt | 5% | 2% | nt | nt
COc1ccc(C2=NOC(C(=O)Nc3cccnc3)C2)cc1OC (stereo not given) | -1%[46.1 µM] | 0% | -12% | nt | 10% | 20% | nt | -4%
Cc1cc(-n2cnnn2)ccc1C(C)C | 20%[46.1 µM] | -7% | 18% | nt | -17%[46.1 µM] | -4% | nt | nt
O=C(N/N=C/C1CC2C=CC1C2)c1ccccc1O (stereo not given) | nt | 0% | -8% | nt | nt | -10% | nt | -3%
O=C1OCCN1C(=O)[C@H]1[C@H](c2ccc(Cl)cc2)C(c2ccc(F)cc2)=NN1c1ccccc1 | nt | -7% | ? | ? | nt | -11% | 2.8% | nt
COc1ccc(OC)c2c1CCC1NCCOC21 (stereo not given) | 16% | 6% | -5% | 8% | 6% | -3% | -1.8% | 25%
Cc1nc2ccc(S(=O)(=O)N(CC(=O)Nc3ccc(F)cc3F)Cc3ccccc3)cc2s1 | nt | nt | -12% | ? | -12%[46.1 µM] | nt | -5.7% | nt
Cc1cccc(NC(=O)CSc2ncnc3sc(C)cc23)c1 | -2%[46.1 µM] | -2% | -14% | nt | 11%[46.1 µM] | 1% | nt | -41%
CCCn1c(N)c(C(=O)COC(=O)c2c(C)noc2C)c(=O)n(C)c1=O | ? | 13% | -26% | -4% | -5% | -7% | -2.0% | -2%
CC(Sc1nc(N)cc(=O)[nH]1)C(=O)N1CCOCC1 (stereo not given) | ? | -1% | -3% | nt | ? | -7% | nt | nt
COC(=O)C1=C(C)OC(N)=C(C#N)C1c1ccccc1 (stereo not given) | -1% | 3% | -16% | -13% | 12% | 5% | 2.5% | -5%
c1ccc(Oc2cc(-n3cccn3)ncn2)cc1 | ? | -1% | 13% | 2% | 5% | -27% | 1.3% | -3%

Compound | MARV entry inh | SARS PLP yeast | 2A StopGo | Cruzain noTriton | Lassa entry inh | RE007 growth inh | Cruzain Triton | NS1 inh
CCOC(=O)C1=C(C)N=c2s/c(=C\c3ccc(OC(C)=O)c(OCC)c3)c(=O)n2C1/C=C/c1ccccc1 (stereo not given) | -17% | -7% | 1% | -3% | 1% | 16% | 3.8% | ?
CC(C)c1ccc(NC(=O)C(c2ccccc2)N2CCN(C(=O)c3ccco3)CC2)cc1 (stereo not given) | -22%[46.1 µM] | -11% | 38%[activator] | 10% | 15% | 5% | -2.8% | -74%
CCOc1ccc(NC(=O)N(CCN(C)C)C(C)c2cccnc2)cc1 (stereo not given) | nt | 1% | -7% | nt | nt | -2% | nt | 4%
CC(=O)c1cccc(NS(=O)(=O)c2c(C(=O)N3CCOCC3)c(C)n(C)c2C)c1 | 13%[46.1 µM] | 2% | 60%[activator] | nt | 0%[46.1 µM] | 0% | nt | -6%
CC(C)c1ccc(C2c3c(-c4ccccc4O)n[nH]c3C(=O)N2CCc2ccccc2)cc1 (stereo not given) | ? | nt | -7% | 20µM* | ? | nt | -3.8% | nt
O=C(NCCc1ccc(Cl)cc1)C1CCN(S(=O)(=O)c2ccc(-n3cnnn3)cc2)CC1 | -12%&-12%[46.1 µM] | 4% | ? | ? | 0% | -6% | -0.5% | -38%
O=C(c1ccco1)N1CCN(C(=S)Nc2ccccc2Cl)CC1 | -16% | 2% | -23% | nt | -3% | ? | nt | 13%
COc1ccc2[nH]c(CN3CCN(CC(C)C)C(CCO)C3)c(C)c2c1 (stereo not given) | ? | 0% | 18% | nt | ? | -11% | nt | 10%
O=C1NCCCC1C(=O)N1CCN(C(=O)c2ccco2)CC1 (stereo not given) | -3% | -2% | 1% | -9% | 24% | 12% | 3.1% | 1%
O=C(CN1C(=O)c2ccccc2C1=O)Nc1ccccc1 | nt | -3% | 9% | nt | nt | 6% | nt | 7%
N=c1c(C(=O)NCc2ccc(F)cc2)cc2c(=O)n3ccccc3nc2n1CC1CCCO1 (stereo not given) | ? | 1% | -24% | ? | nt | 13% | 32µM* | 2%
O=C(C1CCN(S(=O)(=O)c2cccc3nonc23)CC1)N1CCCCC1 | -16%[46.1 µM] | -3% | -5% | nt | 19% | 11% | nt | -8%
CC(C)CC(=O)/C=C/n1c(=S)oc2ccccc21 | -16% | -4% | ? | -3% | 13% | -27% | -3.3% | -14%
C/C(=N/NC(=O)CCc1c(C)n[nH]c1C)c1cccc([N+](=O)[O-])c1 | nt | 0% | -4% | nt | nt | 1% | nt | -2%
C/C(=N\NC(=S)Nc1ccc(C)c(C)c1)c1ccc(N2CCOCC2)cc1 | nt | -22% | -13% | -27% | nt | -6% | -18% | 7.9µM*

Compound | MARV entry inh | SARS PLP yeast | 2A StopGo | Cruzain noTriton | Lassa entry inh | RE007 growth inh | Cruzain Triton | NS1 inh
CC(=O)NS(=O)(=O)c1ccc(NC(=O)c2cccn(Cc3ccc(Cl)cc3)c2=O)cc1 | nt | nt | -15% | ? | -14%[46.1 µM] | nt | -6.7% | nt
COc1ccc(C(C)=O)cc1CN1C(=O)NC2(CCCC2)C1=O | ? | 3% | 14% | nt | 16%[46.1 µM] | 1% | nt | nt
CN(C)CCOC1c2ccccc2-c2ccccc21 | ? | 2% | 4% | nt | -18% | 1% | nt | -10%
Cn1c(O)c(/C=N/N2CCOCC2)c(=O)[nH]c1=S | -4% | 1% | 7% | nt | 18% | 4% | nt | 4%
Cc1ccc(NC(=O)CN2C(=O)N/C(=C/c3ccccc3OCc3cccc(C(=O)O)c3)C2=O)cc1 | ? | 1% | 73%[activator] | nt | ? | 1% | nt | -1%
Cc1cc(NC(=O)COc2cccc(Oc3ccccc3)c2)no1 | -26% | 1% | -9% | -9% | -15% | -1% | -1.2% | 8%
CCOc1cc2[nH]c(=O)n(CCC(=O)N3CCN(c4cccc(Cl)c4)CC3)c(=O)c2cc1OCC | nt | nt | ? | -3% | 14%[46.1 µM] | nt | 4.1% | nt
COCCCNC(=O)[C@H]1N2C(=O)c3ccccc3C2SC1(C)C (stereo not given in full) | 2%[46.1 µM] | -1% | 21% | nt | 12%[46.1 µM] | -9% | nt | 1%
O=C(C[n+]1ccccc1)N/N=C/c1cccs1 | ? | 5% | 3% | nt | 2%[46.1 µM] | 1% | nt | nt
COC(=O)N1C(c2ccccc2)C1c1ccccc1 (stereo not given) | 21%[46.1 µM] | 1% | -19% | nt | -25% | 26% | nt | 2%
O=C(CSc1nc2ccccc2c(=O)n1Cc1ccco1)N1CCCCCC1 | -15% | -2% | ? | 0% | ? | 0% | -8.6% | -23%
COc1ccc(Br)c(C(=O)Nc2cccc(Cl)c2Cl)c1 | 3% | -17% | -11% | 3% | 23% | -13% | -10% | 0%
CC(NC(=O)NC1CCCCC1)c1ccccc1 (stereo not given) | 3% | 1% | -11% | 4% | 14% | nt | -1.6% | 0%

Not a hit list; 4.8% or so of the library scored in one or more.
